NOMO-1 viab: STK33 inhibitor candidate reducing NOMO-1 cell viability | AID 2330 | inhibition, % (test concentration not listed) | NOMO-1 AML viability, CellTiter-Glo luminescence, 72 h | 37,000 compounds, 7.5% hits;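 active = most replicates above 80%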;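 also: wells of about 30 µL received 25 nL stock; 0% = median of vehicle wells and 100% = reference inhibitor level; the first replicate is given; inactives centre near 10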
* hit, by the source's call.

nr	smiles	NOMO-1 viab
1	Cc1ccc(S(=O)(=O)Nc2cccc3c2O[C@H](CN(C)C(=O)Nc2ccc(F)cc2)[C@@H](C)CN([C@H](C)CO)C3=O)cc1	14
2	C[C@H]1CN([C@@H](C)CO)C(=O)c2cc(NS(=O)(=O)c3ccccc3)ccc2O[C@@H]1CN(C)Cc1ccc(Cl)c(Cl)c1	55
3	C[C@@H]1CN([C@H](C)CO)C(=O)c2cc(NC(=O)CCN3CCOCC3)ccc2O[C@@H]1CN(C)Cc1ccc(Cl)c(Cl)c1	-1
4	C[C@@H]1CN([C@@H](C)CO)C(=O)c2cccc(NC(=O)Nc3cccc4ccccc34)c2O[C@@H]1CN(C)Cc1ccc2c(c1)OCO2	36
5	Cc1noc(C)c1S(=O)(=O)Nc1ccc2c(c1)C(=O)N([C@@H](C)CO)C[C@@H](C)[C@H](CN(C)Cc1ccc(C(F)(F)F)cc1)O2	19
6	C[C@H](CO)N1C[C@H](C)[C@H](CN(C)S(=O)(=O)c2cccs2)Oc2ccc(NC(=O)Nc3cccc4ccccc34)cc2C1=O	-21
7	COc1ccc(CN(C)C[C@H]2Oc3ccc(NC(=O)Nc4ccc(F)cc4)cc3C(=O)N([C@H](C)CO)C[C@H]2C)cc1	5
8	C[C@H](CO)N1C[C@H](C)[C@H](CN(C)C(=O)NC2CCCCC2)Oc2c(NC(=O)c3ccc(-c4nccs4)cc3)cccc2C1=O	16
9	OC(COc1ccccc1Cl)Cn1nnc2ccccc21 (configuration not stated)	7
10	Cc1cc(Cn2ccc(C(F)(F)F)n2)c(C)c(-c2c(C#N)c(N)nc3c2CCCCC3)c1	33
11	c1ccc(-c2ccc3ccccc3n2)nc1	104*
12	C[C@H]1CN([C@@H](C)CO)C(=O)c2cccc(NS(=O)(=O)c3ccccc3)c2O[C@@H]1CN(C)Cc1ccc2c(c1)OCO2	-11

Going on with the list.
nr	smiles	NOMO-1 viab
13	C[C@@H]1CN([C@@H](C)CO)C(=O)c2cc(NC(=O)CCCN(C)C)ccc2O[C@H]1CN(C)C(=O)Nc1ccc2c(c1)OCO2	6
14	COc1ccc(NC(=O)Cc2coc3cc(C)cc(C)c23)c(OC)c1	2
15	COC(=O)C(C)Nc1cccc(Br)c1 (configuration not stated)	-12
16	COc1ccc(S(=O)(=O)Nc2ccc3c(c2)C(=O)N([C@@H](C)CO)C[C@H](C)[C@H](CN(C)S(=O)(=O)c2cccs2)O3)cc1	0
17	C[C@H]1CN([C@@H](C)CO)C(=O)c2cc(NC(=O)c3ccncc3)ccc2O[C@@H]1CN(C)Cc1ccc(-c2ccccc2)cc1	14
18	O=C(Nc1ccc(O)cc1)C1CCCN1S(=O)(=O)c1ccc(F)cc1 (configuration not stated)	8
19	CCOc1cccc(-c2nnc(SCC(=O)n3c4c(c5ccccc53)CCCC4)n2C)c1	-3
20	C[C@H]1CN([C@@H](C)CO)C(=O)Cc2cc(NC(=O)CCCCCC(=O)Nc3ccccc3N)ccc2O[C@H]1CN(C)C(=O)NC1CCCCC1	18
21	C[C@@H]1CN([C@@H](C)CO)C(=O)c2cccc(NS(=O)(=O)c3ccccc3)c2O[C@@H]1CN(C)C(=O)Nc1cccc2ccccc12	19
22	O=C(c1nn2c(C(F)(F)F)cc(-c3cccs3)nc2c1Cl)N1CCCc2ccccc21	107*
23	COc1ccccc1C(NC(C)=O)c1c(O)ccc2ccccc12 (configuration not stated)	5
24	C[C@H]1CN([C@@H](C)CO)C(=O)c2cc(NC(=O)CCCN(C)C)ccc2O[C@H]1CN(C)Cc1ccc(-c2ccccc2)cc1	51

(further entries)
nr	smiles	NOMO-1 viab
25	O=c1cc(-c2ccccc2)nc2scc(-c3ccccc3)n12	8
26	C[C@@H]1CN([C@H](C)CO)C(=O)c2cccc(NS(=O)(=O)c3ccc(F)cc3)c2O[C@@H]1CN(C)Cc1ccncc1	16
27	CNC[C@@H]1Oc2c(NS(=O)(=O)c3ccc(C)cc3)cccc2C(=O)N([C@@H](C)CO)C[C@H]1C	-25
28	COc1ccc(S(=O)(=O)Nc2ccc3c(c2)C(=O)N([C@@H](C)CO)C[C@@H](C)[C@@H](CN(C)S(C)(=O)=O)O3)cc1	1
29	COc1ccc(S(=O)(=O)Nc2cccc3c2O[C@@H](CN(C)C(=O)Nc2ccc4c(c2)OCO4)[C@H](C)CN([C@H](C)CO)C3=O)cc1	-9
30	CC(C)NC(=O)N(C)C[C@@H]1Oc2ccc(NC(=O)C3CC3)cc2CC(=O)N([C@H](C)CO)C[C@H]1C	-9
31	Cc1cc(C(=O)Nc2cccc3c2O[C@H](CN(C)Cc2ccc4c(c2)OCO4)[C@H](C)CN([C@@H](C)CO)C3=O)n(C)n1	-3
32	CSc1nc(O)cc(=O)[nH]1	-8
33	C[C@H](CO)N1C[C@H](C)[C@H](CN(C)C(=O)Nc2ccc(F)cc2)Oc2ccc(NC(=O)CCC(F)(F)F)cc2C1=O	-5
34	Oc1ccc([C@H]2Oc3cc(O)cc(O)c3C[C@H]2O)cc1	2
35	Cc1ccc(O)c(NC(=O)c2nc3ncccn3n2)c1	5
36	Cc1noc(C)c1NC(=O)Nc1ccc2c(c1)C(=O)N([C@H](C)CO)C[C@H](C)[C@@H](CN(C)Cc1ccncc1)OCCCC[C@@H](C)O2	34

Further records
nr	smiles	NOMO-1 viab
37	CC(C)(C)c1ccc(OC(=O)CCN2C(=O)C3C4C=CC(C5CC45)C3C2=O)cc1 (configuration not stated)	28
38	C[C@@H]1CN([C@H](C)CO)C(=O)c2cccc(NC(=O)c3ccc(-c4nccs4)cc3)c2O[C@H]1CN(C)S(=O)(=O)c1cn(C)cn1	18
39	C[C@@H]1CN([C@@H](C)CO)C(=O)c2cccc(NC(=O)Nc3ccccc3)c2O[C@H]1CN(C)Cc1ccc(Oc2ccccc2)cc1	113*
40	CCN(CC(=O)Nc1cccc(Cl)c1C)S(=O)(=O)c1ccc(C)cc1	10
41	Cc1noc(C)c1NC(=O)N(C)C[C@@H]1Oc2ccc(NC(=O)NC(C)C)cc2C(=O)N([C@H](C)CO)C[C@H]1C	8
42	N#CC(C(=O)c1ccco1)c1nc2ccccc2[nH]1 (configuration not stated)	64
43	COc1ccc(NC(=O)N(C)C[C@@H]2Oc3ccc(N(C)C)cc3C(=O)N([C@@H](C)CO)C[C@@H]2C)cc1	1
44	COc1ccc(S(=O)(=O)N(C)C[C@H]2Oc3ccc(NC(=O)Nc4ccc5c(c4)OCO5)cc3C(=O)N([C@@H](C)CO)C[C@H]2C)cc1	-5
45	CC(C)NC(=O)N(C)C[C@@H]1Oc2ccc(NS(=O)(=O)c3ccc(F)cc3)cc2CC(=O)N([C@H](C)CO)C[C@H]1C	9
46	C[C@H]1CN([C@@H](C)CO)C(=O)c2cccc(NS(=O)(=O)c3ccc(Cl)cc3)c2O[C@H]1CN(C)C(=O)Nc1ccccc1	22
47	C[C@H](CO)N1C[C@H](C)[C@H](CN(C)C(=O)NC2CCCCC2)Oc2ccc(NC(=O)Cc3cn(C)c4ccccc34)cc2CC1=O	-2
48	Cc1noc(C)c1NC(=O)N(C)C[C@H]1Oc2ccc(NC(=O)CCN3CCOCC3)cc2CC(=O)N([C@H](C)CO)C[C@H]1C	-11

Next part:
nr	smiles	NOMO-1 viab
49	Cc1cc(-c2cccs2)c(C#N)c(SCC(=O)Nc2cccc(F)c2)n1	26
50	COc1ccc(CNc2nc3nc(C)cc(=O)n3[nH]2)cc1OC	15
51	CCOc1cc(S(=O)(=O)NCCN2CCOCC2)ccc1F	-10
52	CC(C)NC(=O)Nc1cccc2c1O[C@H](CN(C)C(=O)Nc1ccc(C(F)(F)F)cc1)[C@@H](C)CN([C@@H](C)CO)C2=O	-1
53	C[C@@H]1CN([C@H](C)CO)C(=O)c2cccc(NC(=O)c3nc4ccccc4s3)c2O[C@H]1CN(C)S(=O)(=O)c1ccc(Cl)cc1	62
54	C[C@H]1CN([C@@H](C)CO)C(=O)c2cccc(NC(=O)Nc3ccccc3)c2O[C@H]1CN(C)C	16
55	C[C@@H]1CN([C@@H](C)CO)C(=O)c2cccc(NC(=O)CCCCCC(=O)Nc3ccccc3N)c2O[C@@H]1CN(C)C(=O)Nc1ccc(F)cc1	57
56	CCC(Sc1nc2ccccc2o1)C(=O)Nc1cccc2ccccc12 (configuration not stated)	14
57	C[C@@H]1CCCCO[C@H](CN(C)C)[C@@H](C)CN([C@H](C)CO)C(=O)c2cc(NC(=O)NC3CCCCC3)ccc2O1	12
58	COc1ccc(S(=O)(=O)Nc2ccc3c(c2)CC(=O)N([C@H](C)CO)C[C@@H](C)[C@H](CN(C)C(=O)Nc2ccc(C(F)(F)F)cc2)O3)cc1	13
59	C[C@@H]1CN([C@@H](C)CO)C(=O)Cc2cc(NC(=O)CCC(F)(F)F)ccc2O[C@@H]1CN(C)Cc1ccccc1	13
60	COc1ccc([N+](=O)[O-])cc1CSc1nnc(-c2ccc(NC(C)=O)cc2)n1C	7

Additional compounds
nr	smiles	NOMO-1 viab
61	C[C@@H]1CCCCO[C@@H](CN(C)C(=O)CCC(F)(F)F)[C@@H](C)CN([C@H](C)CO)C(=O)c2cc(NC(=O)c3ccccc3)ccc2O1	24
62	Cc1c(Cl)ccc2c(C(=O)NCCCn3cc(Br)cn3)cc(-c3ccncc3)nc12	6
63	CCOC(=O)C1=C(C)Nc2ncnn2C1c1c[nH]c2ccccc12 (configuration not stated)	-13
64	Cc1cc(C)n(-c2nc3ccc([N+](=O)[O-])cc3nc2-n2nc(C)cc2C)n1	18
65	O=c1[nH]c(=O)n(Cc2ccco2)c2c1C(C(F)(F)F)(C(F)(F)F)N=C(c1ccc(F)cc1)N2	61
66	COc1ccc(S(=O)(=O)Nc2ccc3c(c2)CC(=O)N([C@H](C)CO)C[C@@H](C)[C@@H](CN(C)Cc2ccc(C(F)(F)F)cc2)O3)cc1	119*
67	C[C@H](CO)N1C[C@H](C)[C@H](CN(C)C(=O)NC2CCCCC2)Oc2ccc(NC(=O)Nc3cccc4ccccc34)cc2C1=O	44
68	C[C@@H]1CN([C@H](C)CO)C(=O)c2cc(NC(=O)Cn3cnnn3)ccc2O[C@@H]1CN(C)Cc1ccccc1	-5
69	COc1ccc(CN(C)C[C@H]2Oc3c(NC(=O)Nc4ccccc4)cccc3C(=O)N([C@H](C)CO)C[C@H]2C)cc1	12
70	COc1ccc(S(=O)(=O)N(C)C[C@@H]2Oc3ccc(NS(C)(=O)=O)cc3CC(=O)N([C@@H](C)CO)C[C@@H]2C)cc1	19
71	COc1ccc(S(=O)(=O)N(C)C[C@H]2Oc3c(NC(=O)Nc4ccccc4)cccc3C(=O)N([C@@H](C)CO)C[C@H]2C)cc1	39
72	C[C@@H]1CN([C@@H](C)CO)C(=O)c2cc(NS(=O)(=O)c3cccs3)ccc2O[C@@H]1CN(C)S(=O)(=O)c1cccs1	5

(listing goes on)
nr	smiles	NOMO-1 viab
73	COc1ccc(NC(=O)CSc2nc(C)cc(=O)[nH]2)cc1	-16
74	Cc1ccc(S(=O)(=O)N(C)C[C@H]2Oc3ccc(NC(=O)NC(C)C)cc3C(=O)N([C@@H](C)CO)C[C@H]2C)cc1	6
75	C[C@H](CO)N1C[C@H](C)[C@@H](CN(C)CC2CCCCC2)Oc2ccc(NS(=O)(=O)c3ccccc3)cc2C1=O	-12
76	COc1ccc(S(=O)(=O)N(C)C[C@@H]2Oc3ccc(NC(=O)Nc4cccc5ccccc45)cc3C(=O)N([C@H](C)CO)C[C@@H]2C)cc1	29
77	O=C(Cc1ccccc1)NO	-12
78	COc1ccc(S(=O)(=O)Nc2cccc3c2O[C@H](CN(C)S(=O)(=O)c2ccc(C)cc2)[C@@H](C)CN([C@@H](C)CO)C3=O)cc1	-3
79	C[C@@H]1CN([C@@H](C)CO)C(=O)c2cc(NC(=O)Nc3cccc4ccccc34)ccc2O[C@@H]1CN(C)Cc1ccc(C(F)(F)F)cc1	106*
80	Cc1cc(C(=O)Nc2cccc3c2O[C@H](CN(C)C(=O)Nc2ccccc2)[C@H](C)CN([C@@H](C)CO)C3=O)n(C)n1	10
81	COc1ccc(CN(C)C[C@H]2Oc3ccc(NC(=O)Nc4ccc(C(F)(F)F)cc4)cc3CC(=O)N([C@@H](C)CO)C[C@@H]2C)cc1	14
82	O=C(CCSc1ccc([N+](=O)[O-])cc1)Nc1cccc2cccnc12	22
83	COc1ccc(OC)c(N(CC(=O)Nc2ccc(Br)cc2F)S(C)(=O)=O)c1	10
84	C=CCn1nc2sc3ccccc3n2c(=O)c1=O	-10
85	COc1ccc(CN(C)C[C@@H]2Oc3ccc(NS(=O)(=O)c4cccs4)cc3C(=O)N([C@@H](C)CO)C[C@@H]2C)cc1	13

Screening data deposited in PubChem by Broad Institute.

The list is partial, so the mix of outcomes need not match the whole.
